Screening data from PubChem BioAssay.
ALR inh – human ALR oxidase inhibition via reduced H2O2 | P55789 | purified ALR, DTT oxidation, H2O2 HRP-luminol luminescence | inhibition, % (no concentration beside the values) | 290,000 compounds, 3.8% hits | AID 485317;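 active = mean and each replicate at 75% or more; inconclusive = only one of the two met; inactive = neither met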;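 also: stock transfer was 7.5 nL into about 7.5 µL; 0% = neutral wells and 100% = wells with inactivated enzyme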
rRNA inh HTS – inhibits bacterial ribosomal RNA function over humanized ribosomes | E. coli WT GFP vs humanized-ribosome RFP mutants, fluorescence, 24 h; hits give low values; DMSO median 0, no signal -100 | 350,000 compounds, 1.6% hits | GFP signal change (wild-type ribosome), % (concentration not given with the values);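 active = significant combined selectivity score with lowered wild-type GFP, culture density cut under 30%, mutant RFP and density less affected; inactive = any of these conditions unmet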; also: one replicate is shown; some compounds called inactive have numbers as strong as hits
LANA-H2B inh – blocks KSHV LANA binding to histone H2A/H2B; inhibition, % (no concentration beside the values); cell-free LANA-H2A/H2B peptide, fluorescence polarization; AID 2629; 320,000 compounds, 0.6% hits; in the data active = inhibition mostly above about 10%, no sharp cut-off; inactive = mostly below about 6.7%;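 also: stock transfer was 7.5 nL into about 10 µL; 0% = median of vehicle wells and 100% = median of positive control wells; one replicate is shown; the record names a cut of 25% in any replicate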
Target sequence (Q9QR71 whole entry, looked up): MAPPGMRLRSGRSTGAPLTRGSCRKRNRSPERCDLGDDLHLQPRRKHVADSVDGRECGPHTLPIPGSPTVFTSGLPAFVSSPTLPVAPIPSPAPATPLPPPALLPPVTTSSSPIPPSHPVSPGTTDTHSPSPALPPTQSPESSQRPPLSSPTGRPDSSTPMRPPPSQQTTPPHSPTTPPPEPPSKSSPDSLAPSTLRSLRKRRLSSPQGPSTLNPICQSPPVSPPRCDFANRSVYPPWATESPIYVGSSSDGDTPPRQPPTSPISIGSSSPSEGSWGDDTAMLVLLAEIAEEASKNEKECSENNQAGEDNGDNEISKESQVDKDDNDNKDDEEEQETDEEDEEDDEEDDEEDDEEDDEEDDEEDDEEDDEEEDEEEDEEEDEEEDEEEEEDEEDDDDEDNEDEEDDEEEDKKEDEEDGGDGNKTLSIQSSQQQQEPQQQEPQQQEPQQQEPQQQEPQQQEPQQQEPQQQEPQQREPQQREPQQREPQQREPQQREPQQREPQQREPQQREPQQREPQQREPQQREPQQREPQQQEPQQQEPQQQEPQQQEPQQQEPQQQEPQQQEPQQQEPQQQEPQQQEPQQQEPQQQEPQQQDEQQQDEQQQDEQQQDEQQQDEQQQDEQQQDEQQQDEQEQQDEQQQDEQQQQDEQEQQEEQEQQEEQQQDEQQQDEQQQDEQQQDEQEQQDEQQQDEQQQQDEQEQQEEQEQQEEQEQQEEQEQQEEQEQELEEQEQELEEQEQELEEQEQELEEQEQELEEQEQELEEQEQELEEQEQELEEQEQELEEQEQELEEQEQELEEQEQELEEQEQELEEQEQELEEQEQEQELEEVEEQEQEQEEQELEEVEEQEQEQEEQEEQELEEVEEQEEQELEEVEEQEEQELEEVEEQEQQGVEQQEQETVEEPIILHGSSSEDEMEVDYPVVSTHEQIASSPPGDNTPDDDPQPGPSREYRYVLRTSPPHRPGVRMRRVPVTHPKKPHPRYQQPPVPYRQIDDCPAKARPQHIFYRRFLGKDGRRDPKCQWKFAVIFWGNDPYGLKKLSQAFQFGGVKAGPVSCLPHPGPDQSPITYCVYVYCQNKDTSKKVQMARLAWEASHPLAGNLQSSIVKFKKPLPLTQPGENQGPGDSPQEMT
Beta cell apopt – beta cell apoptosis inhibition | INS-1E cytokine-induced death, ATP luminescence, 48 h; percent of positive-control rescue, neutral wells zero | protection from apoptosis, % (test concentration not listed) | 300,000 compounds, 0.8% hits;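 active = all replicates at 75% or more, or half of them and the mean; inconclusive = half reach 75% but not the mean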;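 also: 0% = cytokine-treated negative control wells and 100% = positive control rescue; higher means more ATP so stronger rescue from cytokine killing; wells of about 40 µL received 100 nL stock; the first replicate is given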
A1 inh – inhibitors of the anti-apoptotic protein A1, read as caspase activation; AID 2462; 330,000 compounds, 0.066% hits; MEF A1-2A-BIM cells, Caspase-Glo 3/7 luminescence, 3 h; percent of clofoctol response, vehicle zero; caspase activation, % (test concentration not listed);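 active = over half of replicate activation scores above 10%, or exactly half above 10 with the replicate mean above 10; inconclusive = replicate mean below 10 yet half the replicates above 10; inactive = over half of replicates below 10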;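 also: wells of about 30 µL received 50 nL stock; many hits fall short of the cut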
Calb FLC – C. albicans growth modulation with fluconazole. C. albicans CaCi-2 (fluconazole-resistant clinical isolate) + fluconazole, Alamar Blue growth, 48 h. growth inhibition, % (test concentration not listed). 300,000 compounds, 0.57% hits;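 active = most replicates above 75%; inconclusive = exactly half above 75%; inactive = most below 75%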;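 also: all wells also contain fluconazole at 8 µg/ml as a sub-toxic cotreatment; 0% = median of DMSO wells and 100% = median of geldanamycin control wells; wells of about 8 µL received 7.5 nL stock; the first replicate is given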
B2AR ag – human beta-2 adrenergic receptor agonism by FAP; P07550; Am2.2-beta2AR cells, FAP receptor internalization, flow cytometry; reference of the scale not given here; response, % (test concentration not listed); 340,000 compounds, 0.43% hits;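 active = response above a set limit, near 3 SD of response in nonfluorescent compounds, cut at about 42% in these data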;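 also: stock transfer was 100 nL into about 11 µL; a reference agonist was the positive control; negative values mostly stem from fluorescent compounds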
T cruzi inh – T. cruzi replication inhibition. 300,000 compounds, 1.4% hits. T. cruzi beta-gal in NIH3T3, luminescence, 90 h. AID 1885. inhibition, % (concentration not given with the values);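 active = mean inhibition across valid replicates above about 55%, limit read from the data; inconclusive = mean below that limit but half or more replicates reach it; inactive = mean below it, under half of replicates reach it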;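 also: signal also drops with host cell toxicity which is not excluded here; 0% = plate median of DMSO wells and 100% = zero luminescence signal; higher percent means less beta-gal luminescence so fewer parasites; stock transfer was 50 nL into about 50 µL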
rRNA inh HTS OD600 – recorded beside rRNA inh HTS, whose call it bears; OD600 change, %; measured here: OD600 growth;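 optical density of the mix in the first replicate; 0 = DMSO median and -100 = no signal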
rRNA inh HTS RFP – second read-out of rRNA inh HTS, no call of its own (marks repeat the call); RFP signal change, %; measured here: RFP humanized mutant strains;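 first replicate; 0 = DMSO median and -100 = no signal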
* = called active by the depositor; u = inconclusive; x = no result given; & = joins results of further samples. Not all compounds are listed. The share of hits here may be higher or lower than overall.

SMILES | ALR inh | rRNA inh HTS | rRNA inh HTS OD600 | rRNA inh HTS RFP | LANA-H2B inh | Beta cell apopt | A1 inh | Calb FLC | B2AR ag | T cruzi inh
Cc1ccccc1NC(=S)N(Cc1cccnc1)Cc1ccccc1Cl | 2.1 | -31.2 | -42.8 | -7.2 | 10.8 | -8.8 | 0.0 | -8.0 | -7.6 | 76.0*
COc1ccc(CCNC2CC(=O)N(N(C)C)C2=O)cc1OC (stereo unspecified) | -0.7 | 19.4 | 23.8 | 5.0 | -10.6 | -8.5 | -0.6 | -12.5 | 10.7 | -10.5
N#CCSc1nnc(Cc2cccc3ccccc23)n1C1CCCCC1 | -4.6 | -35.2 | -67.3 | -1.8 | -2.3 | -3.9 | -0.1 | 1.1 | 9.0 | 11.6
Cc1ccsc1CN(C)CC(=O)NCC(=O)Nc1ccc(F)c(F)c1F | -0.8 | -4.5 | -2.7 | 2.1 | -2.0 | -0.8 | 0.7 | x | -3.2 | x
CCn1c(=NC(=O)c2cccc(N3C(=O)CCC3=O)c2)sc2c(C)ccc(OC)c21 | -2.7 | -10.4 | -0.6 | 5.8 | 0.3 | -10.2 | -0.4 | 13.7 | 14.7 | 0.9
COc1ccc(NC(=O)N(C)C[C@H]2Oc3ccc(NS(=O)(=O)c4ccc(F)cc4)cc3C(=O)N([C@H](C)CO)C[C@@H]2C)cc1 | -4.4 | 2.9&11.1 | 0.9&11.1 | -2.3&0.5 | 5.8 | -3.8 | 2.3 | x | -2.2 | x
COC(=O)Cc1ccc(NC(=O)c2ccc3c(c2)C(=O)N(CC2CCCO2)C3=O)cc1 (stereo unspecified) | -2.3 | 13.4 | 9.6 | -1.5 | 0.1 | 5.6 | 1.0 | x | -6.1 | 2.2
COc1ccc(S(=O)(=O)N(CC(=O)N2CCN(C)CC2)C2CCCCC2)cc1OC | -2.9 | x | x | x | 5.2 | 5.6 | 0.1 | -10.6 | 6.3 | 5.0
Cc1cc(C)c(NC2=NS(=O)(=O)c3ccccc32)c(C)c1 | 0.2 | -0.5 | -7.5 | -2.8 | -4.0 | -2.8 | -0.9 | 1.9 | -6.6 | -1.1
COc1ccc(OCC(=O)N2CCN(c3nnc(-c4ccccc4)c4ccccc34)CC2)cc1 | -5.6 | x | x | x | 1.3 | 16.4 | -0.3 | 35.2 | -12.0 | 35.9
Cc1cc(C)c(C(=O)N2CCCC(CNS(=O)(=O)c3cccs3)C2)o1 (stereo unspecified) | 9.4 | 0.9 | -4.8 | -1.2 | 0.5 | -8.2 | -0.5 | -7.4 | -0.2 | -4.9
Cc1ccc(C)c(OCCCCCn2ccnc2)c1 | -5.1 | x | x | x | 4.0 | 5.5 | 2.1 | -29.8 | 1.2 | 72.3*
CCc1nc(CNC(=O)C2CCC(=O)N(CCc3cccc(F)c3)C2)no1 (stereo unspecified) | -3.8 | 8.3 | 8.9 | -1.6 | -5.9 | -0.6 | -0.8 | 7.2 | -6.6 | -8.2
CN(C(=O)COC(=O)CSc1ccc([N+](=O)[O-])cc1)c1ccccc1 | -2.3 | -3.0 | 1.6 | -3.0 | -3.6 | -2.8 | -0.8 | x | 0.4 | x
COc1ccc(CCNC(=O)CN2C(=O)NC(Cc3c[nH]c4ccccc34)C2=O)cc1 (stereo unspecified) | -14.1 | -1.0 | -3.6 | 3.6 | -2.6 | -3.1 | -0.5 | -1.1 | 1.2 | -11.6
Cc1nn(-c2ccccc2)c(C)c1/C=N/NC(=O)c1cc(C23CC4CC(CC(C4)C2)C3)[nH]n1 | x | x | x | x | -2.5 | 17.7 | -0.5 | 31.6 | 19.8 | 50.0
COc1ccc(S(=O)(=O)NC(C(=O)NCCc2ccccn2)C(C)C)cc1 (stereo unspecified) | 0.7 | 14.6 | 2.6 | 3.5 | 2.2 | -3.0 | -0.6 | -15.5 | -0.6 | -21.0
O=C(Nc1ccccc1OC(F)F)c1cccc(S(=O)(=O)N2CCCC2)c1 | -2.8 | -5.1 | -11.1 | -1.3 | 2.0 | -2.2 | 0.4 | -14.2 | -2.0 | 10.8
COc1ccc(/C=C(/C(=O)c2ccc(Cl)cc2Cl)n2cncn2)cc1 | 95.3* | x | x | x | -1.1 | 0.9 | 0.3 | 17.6 | 18.2 | 62.2*
COc1ccccc1C(=O)NCCC(=O)Nc1ccc(S(=O)(=O)Nc2ncccn2)cc1 | 34.0 | x | x | x | -39.3 | 1.7 | -0.6 | x | -7.7 | x
CN(C(=O)c1cnc(N2CCN(c3ncccn3)CC2)c2ccccc12)c1ccc(Cl)cc1 | -7.1 | x | x | x | -3.9 | 2.5 | -0.3 | -42.9 | 20.5 | 9.8
NC(=O)CSc1nccn1Cc1ccc(Cl)cc1 | -4.7 | -2.3 | -4.0 | 1.6 | -0.3 | -1.3 | -1.1 | -4.6 | -0.1 | -2.4
Cn1c(N)c(C(=O)CSc2nc(N)cc(=O)[nH]2)c(=O)n(C)c1=O | 0.5 | x | x | x | 1.5 | 2.9 | 0.2 | u | -0.2 | -3.8
O=C(NCC(c1ccco1)N1CCCCC1)C(c1ccccc1)c1ccccc1 (stereo unspecified) | 94.0* | -10.1 | -15.3 | -14.9 | -1.8 | 0.0 | 1.9 | 2.3 | 0.7 | 11.6
Nc1ccc(C(=O)OCCc2ccccc2)cc1 | x | -30.4* | -13.8* | 6.3* | 5.3 | -2.5 | -4.3 | -28.0 | -5.0 | -3.1
CSc1cnc2c(N)nc(N(C)C)nc2n1 | -9.5 | x | x | x | -5.0 | -1.2 | -0.8 | 95.1* | -16.4 | -9.8
CCn1cc(CN2CCC(C(=O)Nc3ccc(Oc4cccnc4)cc3)CC2)cn1 | -14.6 | 4.9 | -0.3 | -0.7 | 6.0 | -8.6 | -0.1 | 6.4 | 4.6 | -4.4
CCCCNC(=O)CCn1c(=O)c2ccccc2n(CC(=O)N2CC(C)CC(C)C2)c1=O (stereo unspecified) | -2.0 | x | x | x | 4.6 | -6.0 | -0.2 | 2.7 | 1.9 | 0.4
Cc1ccccc1CC(=O)NC1CCN(Cc2ccccc2)CC1 | -15.4 | 7.3 | 4.6 | 0.3 | 7.6 | -11.3 | -0.9 | -3.1 | -4.6 | 40.2
CSCCC(NC(=O)/C(=C/c1ccco1)NC(=O)c1ccco1)C(=O)O (stereo unspecified) | -6.8 | 11.3 | 11.1 | 7.5 | 2.8 | x | 0.7 | 4.0 | -3.3 | -13.3

Three of the entries above in order of their number in rRNA inh HTS, ascending:
canonical_smiles	rRNA inh HTS
N#CCSc1nnc(Cc2cccc3ccccc23)n1C1CCCCC1	-35.2
Cc1ccsc1CN(C)CC(=O)NCC(=O)Nc1ccc(F)c(F)c1F	-4.5
Cc1cc(C)c(NC2=NS(=O)(=O)c3ccccc32)c(C)c1	-0.5

Further structures:
SMILES | ALR inh | rRNA inh HTS | rRNA inh HTS OD600 | rRNA inh HTS RFP | LANA-H2B inh | Beta cell apopt | A1 inh | Calb FLC | B2AR ag | T cruzi inh
Cc1ccc(S(=O)(=O)N(CC(=O)O)Cc2ccccc2)cc1 | -3.2 | -6.0 | -5.5 | -2.7 | -0.9 | -7.1 | 0.4 | 4.8 | -0.3 | -8.6
O=C(c1csc2c1CCCC2)N1CCCCC1 | -13.1 | x | x | x | -2.4 | -11.5 | 0.0 | 4.7 | 21.6 | 13.4
COc1cc(CNCc2c[nH]c3ccccc23)cc(OC)c1 | 0.4 | 11.2 | 2.9 | 2.2 | -1.6 | 20.1 | -0.4 | 2.8 | 8.2 | 78.0*
COc1ccc(NC(=S)Nc2nc(CC(=O)Nc3ccccc3OC)cs2)cc1 | x | x | x | x | -0.6 | -7.1 | 0.7 | 0.6 | 7.0 | -13.0
CN(C)CCCN(C(=O)c1ccc(S(=O)(=O)N2CCc3ccccc32)cc1)c1nc2ccc(Cl)cc2s1 | -1.6 | -53.9 | -73.2 | -12.5 | -2.5 | 3.7 | 0.6 | 1.7 | 9.2 | 34.5
CN(C(=O)c1cc(COc2ccc(F)cc2Cl)on1)C1CCCc2ccccc21 (stereo unspecified) | -12.8 | -16.4 | -20.8 | -1.7 | 0.7 | -5.2 | -0.1 | 0.7 | 0.3 | 32.8
O=C(NC(=S)Nc1ccccc1C(=O)O)c1ccc2ccccc2c1 | 49.4 | -8.8 | 8.9 | 4.6 | -0.8 | 1.1 | 0.5 | 3.8 | 2.3 | 4.8
O=[N+]([O-])c1ccccc1Nc1ccc(O)cc1 | 99.6* | -36.7 | -36.0 | -12.8 | 2.8 | 2.2 | -0.9 | -28.9 | 18.1 | -18.2
COc1cc2[nH]c3c(=O)n(CCN4CCCCC4)cnc3c2cc1OC | 5.6 | x | x | x | -5.8 | -6.2 | -0.4 | -1.0 | -1.0 | -13.3
O=C1C=C(c2cc(C(F)(F)F)cc(C(F)(F)F)c2)C[C@@H](c2ccc(Cl)cc2)C1 | 0.5 | 9.6 | 1.8 | -4.7 | 1.8 | 12.0 | -0.5 | x | 7.0 | x
Cc1ccc(N2CC(=O)N(NC(=O)CN3CCN(c4ccccc4)CC3)CC2=O)cc1 | 84.9* | 3.5 | 7.7 | -2.4 | -2.4 | x | -0.2 | 9.0 | 0.0 | -7.7
Cc1cc(C)cc(OCC(=O)Nc2cccc(S(=O)(=O)NC3=NCCC3)c2)c1 | 3.5 | -9.6 | 0.2 | -0.2 | -5.6 | -2.6 | -0.2 | x | -2.8 | x
COC(=O)CCCSc1nccn1-c1ccccc1 | -6.2 | 3.5 | 7.4 | -4.6 | 3.9 | x | 0.9 | 16.6 | -1.3 | -12.3
Cc1ccccc1-n1c(Cn2c(=O)sc3ccccc32)nnc1SC(C)C | -24.8 | -8.1 | -21.7 | -0.6 | -5.6 | -0.4 | 1.7 | -1.5 | -3.2 | 6.8
CN(Cc1ccccc1)S(=O)(=O)c1ccc(Cl)c(C(=O)NCCc2ccccn2)c1 | -0.8 | -9.9 | 8.3 | 1.3 | 0.0 | 1.3 | -0.2 | 3.9 | 1.0 | 0.1
C/C(=N\Nc1ccc(F)cc1F)c1ccc(F)cc1 | -1.6 | x | x | x | 4.0 | -6.8 | 0.6 | -10.5 | x | -3.3
O=C(O)C1=C(Nc2ccccc2)OCC1=O | x | 7.3 | 7.7 | -1.8 | 0.7 | -5.9 | 0.6 | -3.6 | -1.8 | -0.9
NC(=O)CSc1nc(C23CC4CC(CC(C4)C2)C3)nc2ccccc12 | -3.2 | -5.7 | -13.3 | -4.1 | -1.3 | -8.0 | -0.3 | -11.6 | -4.6 | 27.4
CCOC(=O)C1=C(COC(=O)C2(C)CC2(Cl)Cl)NC(=O)NC1c1ccccc1 (stereo unspecified) | -3.3 | 22.3 | 16.8 | -1.9 | 0.7 | -3.0 | 0.2 | -3.1 | -1.7 | -11.9
